Assay outcomes deposited in PubChem by National Center for Advancing Translational Sciences (NCATS).
LT uptake inh – anthrax lethal toxin internalization inhibition | Cells, anthrax lethal toxin internalization, FRET ratio (460/530) | Potency, µM (highest dose often 40 µM), for inactives: at the highest dose activity change, negative = inhibition, usual class: inhibitors | hit rate 0.67% among 70,000; active = well fitted falling ratio curve with the 530 nm signal flat; inconclusive = other ratio curves, or a change in one channel alone; inactive = flat curves in the ratio and both channels; the % refers to the ratio; also: % is scaled to controls: 0 for no effect and ±100 for the full control effect; nearly all actives have a fitted effect of over 50% in size; tested in ME-180 cells; beta-lactamase reporter
Prx2 Sm inh – blocks S. mansoni peroxiredoxin 2 enzymatic activity; Potency, µM; hit rate 0.07% among 65,000; S. mansoni Prx2 activity coupled to TGR/GSH (TGR is thioredoxin glutathione reductase), NADPH fluorescence loss, qHTS; some inactives read as strong as hits; active means full or partial inhibition curve with a strong effect at the top dose; inconclusive means weaker partial or single-point curve; inactive means no accepted curve; also: series up to 57 µM; many of its hits are not listed in these tables
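Activity is read as the drop in NADPH fluorescence (365/450 nm), recorded every 30 sec for 8 min after H2O2 addition. Prx2 is coupled to TGR-driven NADPH oxidation through glutathione, in phosphate buffer pH 7.4.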
Starred values were filed as active, the others as inactive; ? = inconclusive; . = not tested or not shown; & = joins results of further samples; [ ] = remark or other dose. Potency is read from the fitted curve at half-maximal effect. A portion of the library; rates above refer to the full screens.

Sequence of screens – LT uptake inh	Prx2 Sm inh
CCc1ccccc1N(C(=O)CCC(=O)Nc1cc(C)on1)C(C(=O)NC1CCCC1)c1ccco1 (centres undefined)
  -4.9%	.
COc1cccc(NC(=O)c2ccc(CN3CCOCC3)cc2)c1
  -12.1%	>57
CCOC(=O)COc1cccc2c(=O)n(CC(=O)N3CCc4ccccc43)ccc12
  11.4%	>57
COc1cccc(Nc2ncc3nc(CCc4ccccc4)c(=O)n(CCC#N)c3n2)c1
  ?	>57
CC(NC(=O)c1cc(-c2ccccc2)on1)c1ccccc1 (centres undefined)
  -12.1%	>57
CCCCCCC#CC1C=CC(OC(C)=O)C(COC(C)=O)O1 (centres undefined)
  4.3%[8 µM]	.
CO/N=C(\C)CCN1CCc2nc(-c3ccccc3)c(-c3ccccc3)cc2C1
  -3.1%[8 µM]	.
CC1CCN(c2nc(-c3ccc(F)cc3)cc(C(F)(F)F)n2)CC1
  -5.7%	>57
CCN1C(=O)c2cccc3c(NS(=O)(=O)c4ccc(NC(C)=O)cc4)ccc1c23
  -11.1%	>57
CN(C)c1ccc(-c2nc(Nc3ccncc3)c3ccccc3n2)cc1
  12.6µM*	>57
Cc1ccc(N(C(=O)c2cccs2)C2C=CS(=O)(=O)C2)cc1 (centres undefined)
  1.8%	>57
COc1ccc(N(CC(=O)Nc2cc(Cl)ccc2OC)S(=O)(=O)c2c(C)noc2C)cc1
  ?	>57
CCOC(=O)C1=C(C)NC(=O)NC1c1cccc(O)c1 (centres undefined)
  -4.7%	>57
CCOC(=O)Nc1ccc(S(=O)(=O)Nc2nccc(C)n2)cc1
  10.0%	>57
CC1(C)CC(=O)C=C(Nc2cccc(O)c2)C1
  3.8%	.
CC(C)COC(=O)CCn1[nH]c(=O)c2ccccc2c1=O
  2.5%	>57
Nn1cc(-c2ccccc2)nc1SCC(=O)NCCN1C(=O)CSC1=O
  3.9%	>57
Nc1ccccc1-c1ccccc1
  2.6%	.
COc1cccc(Nc2c(F)c(OC)c(F)c(F)c2C(=O)O)c1
  10.2%	>57
COC(=O)c1cc(=O)nc2sc(-c3ccc(F)cc3)nn12
  0.5%	>57
CC(C)NC(=O)C1CCN(Cc2cnn(-c3ccccc3)c2-n2cccc2)CC1
  -1.5%	>57
CN(c1cccc(NS(=O)(=O)c2cccs2)c1)S(C)(=O)=O
  16.4%	>57
COc1cc(C2NC(=O)NC(C)=C2C(=O)OCc2ccc(C)cc2)cc(OC)c1O (centres undefined)
  1.8%	>57
Cc1[nH]c(=S)[nH]c(=O)c1Cc1ccccc1
  -8.9%	>57
COc1ccc(OC)c(NC(=O)CSc2nnc(Cc3cccn3C)n2CCc2ccccc2)c1
  -10.1%	>57
CC12C=CC3(CN(Cc4ccccc4)C(=O)C3C1C(=O)NC1CC1)O2 (centres undefined)
  ?	>57
O=C(Nc1ccccc1)N1CC[C@@]2(CCCN(C(=O)c3cccc(F)c3)C2)C1
  16.4%	>57
CC1Cc2nc(SCC(=O)NCC3CCCO3)n(Cc3ccccc3)c(=O)c2S1 (centres undefined)
  -0.8%	>57
O=C1Nc2c(Br)cc(Br)cc2C1(O)N1CCOCC1 (centres undefined)
  ?	>57
O=C(CSc1nc2ccccc2s1)Nc1ncccn1
  .	>57
Cc1nc(SCC(=O)N2CCC(C(N)=O)CC2)n[nH]1
  -25.6%	>57
COc1cc(C(=O)N2CCC(NC(=O)C(Cc3ccc(C)cc3)NC(C)=O)CC2)cc(OC)c1OC (centres undefined)
  -2.5%	>57
CCOc1ccccc1NC1c2ccccc2C(=O)N1c1ccc(C)cn1 (centres undefined)
  -26.1%	>57
CCC(C)c1c(O)nc(SCC(=O)N2CCOCC2)[nH]c1=O (centres undefined)
  -5.4%	.
Cc1ccc2c(c1)N(CC(=O)N(Cc1ccc3c(c1)OCO3)CC1CCCO1)C(=O)C(C)O2 (centres undefined)
  -2.5%	>57
CN1CCC(NC(=O)c2cccs2)CC1
  -7.3%	>57
CCCC(=O)c1cc2cc(Cl)ccc2oc1=O
  -11.2%	>57
COc1ccc(CNC(=O)CSc2nc3nc(C)cc(C)n3n2)cc1
  -13.6%	>57
CC(C)[C@]1(Cl)CC[C@@H]2[C@]3(C)CCC[C@@](C)(C(=O)O)[C@H]3C[C@H](Cl)[C@@]2(Cl)[C@H]1Cl
  -19.7%[8 µM]	>57
Cc1occc1C(=O)Nc1cc(C(C)(C)C)on1
  -20.2%	>57
COc1nc(-c2ccccc2)cc(C(F)(F)F)n1
  10.6%	>57
CCCOc1ccc(-c2nnn(CC(=O)OCC)n2)cc1
  -15.3%	>57
CC(C)N(CC[C@@](C(N)=O)(c1ccccc1)c1ccccn1)C(C)C
  ?	>57&>57&>57
O=C(Nc1ccc(S(=O)(=O)N2CCc3ccccc32)cc1)c1ccc2c(c1)OCO2
  ?	>57
CCCC(=O)Nc1ccc(S(=O)(=O)Nc2cc(C)nc(C)n2)cc1
  11.6%	>57
Cn1c(-c2ccc3c(c2)OCO3)cnc1NCc1ccc(Cl)cc1
  -6.3%	>57
CCOC(=O)c1[nH]c(C)c(C(=O)NC2CCCC2)c1C
  -4.9%	>57
CS(=O)(=O)NC1c2cccc3cccc(c23)C1Sc1nncn1/N=C/c1ccco1 (centres undefined)
  -5.7%	>57
Cc1ccc(NC(=O)CS(=O)CC(=O)NC2CCN(Cc3ccccc3)CC2)c(C)c1 (centres undefined)
  -5.2%	>57
O=C(Cn1cc2c(n1)CCCCC2)Nc1ccc(F)cc1F
  -17.8%	>57
COc1ccc2oc(-c3ccccc3)c(C(N)=O)c2c1
  5.4%	.
N=c1oc2c3c4c(cc2cc1C(=O)Nc1ccccc1)CCCN4CCC3
  ?	>57
O=C(c1ccco1)N1CCN(C/C=C/c2ccccc2)CC1
  -9.5%	>57
COc1cccc(-n2nnc3c(=O)n(Cc4cccc(C)c4)cnc32)c1
  18.9%	>57
CCCOC(=O)c1ccc(NC(=O)c2ccoc2C)cc1
  ?	.
CCOc1ccc2[nH]c(=O)c(CN(CCO)C3(c4nnnn4C4CCCCC4)CCCCC3)cc2c1
  1.5%	>57
Cn1nnnc1SCCNCc1cccnc1
  -1.7%	>57
O=C1Nc2cc(Cl)ccc2C1(N1CCNCC1)C(F)(F)F (centres undefined)
  2.9%	>57
O=C(CSc1n[nH]c(-c2cccs2)n1)NCc1cccs1
  9.3%	>57
C=CCNC(=O)c1ccccc1NC(=O)Nc1ccccc1
  -4.2%	>57

6 entries from above, arranged by length of the SMILES, falling.
Sequence of screens – LT uptake inh	Prx2 Sm inh
CCOc1ccc2[nH]c(=O)c(CN(CCO)C3(c4nnnn4C4CCCCC4)CCCCC3)cc2c1
  1.5%	>57
CS(=O)(=O)NC1c2cccc3cccc(c23)C1Sc1nncn1/N=C/c1ccco1 (centres undefined)
  -5.7%	>57
CCOC(=O)c1[nH]c(C)c(C(=O)NC2CCCC2)c1C
  -4.9%	>57
O=C(CSc1n[nH]c(-c2cccs2)n1)NCc1cccs1
  9.3%	>57
O=C(Cn1cc2c(n1)CCCCC2)Nc1ccc(F)cc1F
  -17.8%	>57
Cn1nnnc1SCCNCc1cccnc1
  -1.7%	>57

Other results:
Sequence of screens – LT uptake inh	Prx2 Sm inh
COc1ccc(Br)cc1-c1noc(-c2ccccc2)n1
  0.0%	>57
CC(C)c1cc(C(F)(F)F)n2nc(C(=O)Nc3ccc4c(c3)OCO4)cc2n1
  -29.2%	>57
COc1ccc(CCNc2cc(=O)[nH]c(N)n2)cc1
  -8.3%	>57
CCN(CC)C(=O)c1ccc(C)c(Br)c1
  .	>57
O=C(COC(=O)CCC(=O)c1cccs1)Nc1ccc(S(=O)(=O)N2CCOCC2)cc1
  5.6%	>57
COc1ccc(C(=O)N2CCC3(CCCN(C(c4ccccc4)c4ccccc4)C3)CC2)cc1
  -11.5%	>57
CC(C)C(c1nnnn1CCc1ccccc1)N1CCN(C(=O)c2ccco2)CC1 (centres undefined)
  0.8%	>57
O=C(C1CC1)N1CCc2cc(Br)cc(S(=O)(=O)NCCN3CCOCC3)c21
  0.4%	>57
CC1CCN(C(=O)c2cccc(S(=O)(=O)N3CCCCC3)c2)CC1
  ?	>57
CC1(C)CC(O)C(CCC(O)c2ccccc2)C(C)(C)N1 (centres undefined)
  6.0%	>57
c1cncc(-c2nnc3n2CCC3)c1
  4.0%	>57
Cc1ccc(Cl)cc1N1CCN(C(=O)C2CCN(S(=O)(=O)c3cccnc3)CC2)CC1
  -18.0%	>57
N#Cc1cccc(NC(=O)CC2CCCCC2)c1
  -10.1%	.
CCOC(=O)C1CCN(c2ncnc3c2oc2ccc(Cl)cc23)CC1
  .	>57
O=P1(Nc2cccnc2)COc2ccccc2OC1
  2.3%	>57

Next results:
structure | LT uptake inh | Prx2 Sm inh
CCOC(=O)C1=C(CNCCc2ccc(Cl)cc2)NC(=O)NC1c1ccc2c(c1)OCO2 (centres undefined) | -8.6% | >57
O=c1ccc2ccc(OCc3nnc(-c4ccccc4Br)o3)cc2o1 | -5.7% | >57
CC1(C)Cc2c(C#N)c(OCC(=O)c3ccc(Cl)cc3)nc(-c3ccco3)c2CO1 | -15.3% | >57
C=C[C@@]1(C)CC(=O)[C@@]2(O)[C@@]3(C)[C@@H](O)CCC(C)(C)[C@@H]3[C@H](OC(=O)CCN(C)C)[C@H](OC(C)=O)[C@@]2(C)O1 | 20.1% | >25.6
CCOC(=O)c1sc(NC(=O)C(CC)Sc2nnc3c4ccccc4n(CC)c3n2)nc1C (centres undefined) | 6.0% | >57
Cc1ccc(C(=O)O)cc1S(=O)(=O)NCC1CCCO1 (centres undefined) | -23.5% | >57
COC(=O)[C@H](CCSC)NC(=O)Nc1ccc(OC)cc1 | ? | >57
CC(=O)c1ccc(NC(=O)CSc2nc3nc(C)cc(C)n3n2)cc1 | 17.0% | >57
COc1cccc(-c2cc(C(=O)NC3CCCC3)no2)c1 | 6.4% | >57
Cc1noc(C)c1S(=O)(=O)N(CCc1ccccc1)Cc1ccccc1 | ? | >57
c1ccc2c(c1)oc1c(Nc3ccc(CN4CCOCC4)cc3)ncnc12 | ? | >57
COc1ccc(NC(=O)N2CCC3(CC2)CCN(S(=O)(=O)c2ccccc2)CC3)cc1 | 20.6% | >57
NCCNc1ncnc2ccc(Cl)cc12 | -5.3%[8 µM] | >57
Cc1ccc(-n2c(SCC(N)=O)nnc2-c2ccccn2)cc1C | -3.2% | >57
CCOC(=O)N1CCN(C(=O)N2CCOCC2)CC1 | -1.7% | >57
CNP(=S)(NC)OCCOc1ccc(OC)cc1 | -8.0% | >57
CS(=O)(=O)N1CCC2(CCCN(C(=O)Nc3ccccc3)C2)CC1 | -1.2% | >57
COc1ccc(OC)c(NC2=NC3(CCCC3)N=C(N)N2)c1 | -17.1% | >57
COc1ccc(-c2noc(-c3ccccc3C(=O)NCc3ccco3)n2)cc1 | -0.4% | >57
CCC(C)(C)NC(=O)C(OC(=O)c1cc2sccc2n1C)c1ccc(OC)cc1 (centres undefined) | -14.0% | >57
COc1cccc(N2CCN(c3ncccn3)CC2)c1 | -9.9% | >57
COc1ccc2c(c1)OC(O)(C(F)(F)F)CC2=O (centres undefined) | -7.8% | .
COc1ccc(Cl)cc1NC1=NCC(C)S1 (centres undefined) | ? | >57
COC(=O)[C@H](C)NC(=O)NCc1ccco1 | -7.6% | >57
CCCS(=O)(=O)N1CCCC(C(=O)NCCN(C)Cc2ccccc2)C1 (centres undefined) | -6.9% | >57
O=C(Nc1cccc(Br)c1)c1cc2ccccc2o1 | 5.01µM* | .
CC(C)N(C(=O)CSc1nc2c([nH]1)c(=O)n(C)c(=O)n2C)c1ccccc1 | 16.2% | >57
CCCN(CC(=O)c1cc(C)n(C)c1C)S(=O)(=O)c1cccc(C(F)(F)F)c1 | -8.8% | >57
O=C1c2ccccc2-c2ccc(NC(=O)[C@H]3CCCC[C@@H]3C(=O)O)cc21 | 5.4%[8 µM] | >57
COc1ccc(N2CCN(Cc3nc4c(c(=O)n(C)c(=O)n4C)n3Cc3cccc(C)c3)CC2)cc1 | -23.4% | >57
COc1ccc(NC(=O)c2oc3ccccc3c2NC(=O)c2ccc3c(c2)OCO3)cc1 | -14.4% | >57
CCOCc1nnc(NC(=O)CSc2ccccc2)s1 | 8.2% | >57
Cc1ccc(CS(=O)(=O)CCC(=O)NCC2CCCO2)cc1 (centres undefined) | -5.3% | >57
Cc1cc(NC(=O)CCC(=O)N(C2CC2)C2(C(=O)NC3CCCC3)CCC(C)CC2)no1 (centres undefined) | -15.7% | >57
CCOC(=O)N1CCN(C(=O)c2ccc3c(=O)n(CCC4=CCCCC4)c(=O)[nH]c3c2)CC1 | 11.0% | >57
O=c1cc(-c2ccccc2)nc2nc(-c3ccco3)[nH]n12 | -10.3% | >57
O=C(c1ccccc1)N1CCCCC(Sc2nnnn2-c2ccccc2)C1=O (centres undefined) | -10.0% | >57
